# HNF4A DNA FP: change in binding of human HNF4 alpha to DNA | HNF4a-FITC DNA binding, fluorescence polarization, 1 h | P41235 | 0.3% of 360,000 active | AID 1224865 | activity change, % at 10 µM; in the data active = activity change above about 30%, passing the limit was not always enough;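 also: controls were the assay level and a saturating level of protein; the project sought stronger binding though the title names inhibitors; some compounds called inactive have numbers as strong as hits; positive values seem to mean higher polarization but the record does not say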
# Target sequence (P41235 whole entry, looked up): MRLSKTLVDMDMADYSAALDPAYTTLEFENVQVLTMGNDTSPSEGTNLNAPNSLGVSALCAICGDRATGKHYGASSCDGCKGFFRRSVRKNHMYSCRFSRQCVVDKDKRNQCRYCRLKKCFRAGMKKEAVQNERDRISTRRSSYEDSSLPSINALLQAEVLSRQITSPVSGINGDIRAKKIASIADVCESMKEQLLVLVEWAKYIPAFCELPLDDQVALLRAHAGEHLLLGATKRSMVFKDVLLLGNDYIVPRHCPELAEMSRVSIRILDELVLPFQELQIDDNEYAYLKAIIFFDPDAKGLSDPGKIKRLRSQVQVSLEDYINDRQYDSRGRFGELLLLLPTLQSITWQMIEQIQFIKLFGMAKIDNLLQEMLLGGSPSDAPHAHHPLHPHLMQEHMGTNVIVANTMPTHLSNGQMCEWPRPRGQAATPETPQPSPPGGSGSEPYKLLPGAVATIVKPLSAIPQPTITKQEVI
# FGF22 binding: binders of recombinant human FGF22 by thermal shift; 1.5% of 340,000 active; SYPRO orange fluorescence; percent of sucrose octasulfate shift, DMSO zero; Q9HCT0; calls only at 9.99 µM; AID 651658;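 active = melting point raised past a set limit in the mean and every replicate; inconclusive = no clear call; three in four hits are not shown here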
# Target sequence (Q9HCT0 whole entry, looked up): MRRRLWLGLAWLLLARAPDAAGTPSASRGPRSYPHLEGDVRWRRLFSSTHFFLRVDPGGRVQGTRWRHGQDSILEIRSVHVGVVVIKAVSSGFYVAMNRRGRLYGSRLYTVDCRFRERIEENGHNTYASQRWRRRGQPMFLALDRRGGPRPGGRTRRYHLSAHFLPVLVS
# E coli growth: inhibitors of Escherichia coli growth. 0.21% of 330,000 active. AID 1053175. OD600, 23 h; hits give low values. OD600 absorbance (no concentration beside the values);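 active = OD600 absorbance below the run mean of sample wells minus 3.6 SD, in any replicate, cut at about 0.56 in these data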;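 also: stock transfer was 300 nL into about 60 µL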
# RanGTP-Impb inh: inhibitors of RanGTP-importin-beta interaction, primary screen, biochemical, FRET, CFP-Ran, YFP-importin-beta, homogeneous | cell-free CFP-Ran/YFP-importin-beta FRET ratio | inhibition, % (concentration not given with the values) | 1.1% of 300,000 active | AID 2216;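 active = most replicates above 15%; inconclusive = exactly half above 15%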;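 also: 0% = DMSO wells and 100% = Ran loaded with GDP instead of GTP; wells of about 40 µL received 100 nL stock; the first replicate is given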
# Vif A3G: inhibitors of Vif binding to APOBEC3G peptide, primary screen, biochemical, TR-FRET, GST-Vif 1-94, biotin-A3G peptide, dose response retest (AID 1117319); 0.57% of 260,000 active; inhibition, %, or IC50 in µM where a hit was titrated; TR-FRET GST-Vif / biotin-A3G peptide binding; higher % means a stronger effect; test concentration not given here; strong numbers were not always called active;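 active = above the screen mean plus three standard deviations and confirmed in dose response; inconclusive = results disagree or hit not tested in dose response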;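 also: Vif residues 1-94 fused to GST binding biotinylated APOBEC3G peptide 110-148; 0% = full assay without inhibitor and 100% = GST in place of GST-Vif; retest series ran down from 100 µM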
# AF4-AF9 inh: blocks AF4 peptide binding to human AF9. inhibition, % at 10 µM. 0.47% of 350,000 active. P42568. AID 651704. AlphaScreen, biotin-AF4 peptide binding to FLAG-AF9;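 active = every replicate reaching a set inhibition limit, whatever the replicate mean, cut at about 25% in these data; inconclusive = mean inhibition reaches that limit but some replicates miss it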;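 also: 0% = plate neutral control median and 100% = total signal loss; the record names both 10 and 1 µM as test concentration; the first replicate is given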
# UCH37 inh: inhibitors of human deubiquitinating enzyme UCH37; purified proteasome/UCH37, Ub-AMC cleavage fluorescence; inhibition, % (no concentration beside the values); 0.33% of 330,000 active; AID 588478;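 active = mean of two replicates above 20%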;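 also: 0% = compound-free wells with enzyme and 100% = wells lacking proteasome; stock transfer was 100 nL into about 20 µL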
# Target sequence (Q9Y5K5 whole entry, looked up): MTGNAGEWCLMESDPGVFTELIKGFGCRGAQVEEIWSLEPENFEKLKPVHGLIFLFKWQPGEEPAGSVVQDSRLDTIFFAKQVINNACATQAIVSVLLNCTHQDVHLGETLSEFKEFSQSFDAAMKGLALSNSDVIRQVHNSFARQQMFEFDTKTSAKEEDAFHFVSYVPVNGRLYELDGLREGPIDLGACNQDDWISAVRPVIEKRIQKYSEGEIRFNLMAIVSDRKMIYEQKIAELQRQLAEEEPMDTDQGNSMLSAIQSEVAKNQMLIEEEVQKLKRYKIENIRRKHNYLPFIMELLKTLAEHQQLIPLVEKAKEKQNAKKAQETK
#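 Material: human UCH37 enzyme supplied as purified proteasome complex. Measure: % inhibition of Ub-AMC cleavage fluorescence. Medium: pH 7.4 Tris-HCl (50 mM) with ovalbumin, ATP-MgCl2, DTT. Times: 30 min preincubation with enzyme, 25 min cleavage at room temperature. Detection: AMC fluorescence intensity at 355/460 nm.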
# * = called active by the depositor; i = inactive; ? = inconclusive; nt = not tested or not shown; + = active, no number; & = joins results of further samples; ! = not active in a repeat.
SMILES,HNF4A DNA FP,FGF22 binding,E coli growth,RanGTP-Impb inh,Vif A3G,AF4-AF9 inh,UCH37 inh
CC(=O)C1=C(C)Nc2ncnn2C1c1ccc(Br)cc1 (stereo not drawn),-0.3,i,0.67,-4.3,nt,-6.8,0.3
CC1(C(=O)NC(=S)N(CCC#N)c2ccccc2)CC1(Cl)Cl (stereo not drawn),-0.9,nt,0.72,6.6,1%,nt,2.7
CCn1c(NCc2cccc(OC)c2OC)nc2ccccc21,1.3,nt,0.68,4.7,19%,nt,4.0
Cc1nn(C)c(C)c1CCC(=O)N1CCCC(Nc2ccc(C(C)C)cc2)C1 (stereo not drawn),-2.9,i,0.7,2.6,nt,1.9,0.6
CC1CCCCC1NC(=S)NC(=O)c1ccccc1Cl (stereo not drawn),2.0,i,0.69,nt,nt,1.1,1.6
C[C@@H]1CN([C@H](C)CO)S(=O)(=O)c2ccc(C#CCN(C)C)cc2O[C@@H]1CN(C)Cc1ccccc1F,5.1,+!,nt,nt,1%,6.4&7.3&10,nt
O=C(CC(c1ccccc1)c1ccccc1O)NCc1ccccc1Cl (stereo not drawn),-1.2,nt,0.7,1.5,nt,nt,4.2
CCC(=O)N1CCC(c2ccc(OC)cc2)=N1,0.8,i,0.67,4.7,nt,-4.1,2.9
COC(=O)[C@@]1(C)[C@H]2C(=O)N(C)C(=O)[C@H]2[C@H]2CN=C(SCC(=O)c3ccccc3)N21,0.4,i,0.71,nt,-4%,0.2,5.8
Oc1ccc(-c2nc3ccccc3s2)cc1,-4.0,i,0.61,6.5,1%,-11,-60
O=C1NC2C3CC(c4ccccc43)C12 (stereo not drawn),1.9,i,nt,nt,3%,-3.2,nt
O=C(CN1CCOCC1)Nc1ccc(S(=O)(=O)NC2CCCCC2)cc1,-1.8,nt,0.69,6.4,-3%,nt,3.9
CCCn1c(=O)c2c(nc(Br)n2CCC)n(C)c1=O,0.2,nt,0.67,-1.0,?,nt,2.7
CC(OC(=O)c1ncc(Cl)c(Cl)c1Cl)C(=O)NC1CCCCC1C (stereo not drawn),0.9,i,0.68,2.7,-7%,0.6,4.7
COc1cc(C)c(Cl)c(C)c1S(=O)(=O)NC1CC(C)(C)NC(C)(C)C1,3.3,i,0.64,2.0,8%,0.0,0.7
c1ccc(CCC2CCCCN2Cc2nc(-c3ccc4c(c3)OCO4)no2)nc1 (stereo not drawn),-2.4,i,0.7,0.0,nt,1.7,-1.6
CCN1CCC2(CC1)N=C(c1ccc(F)cc1)C(=S)N2,1.5,i,0.69,-1.1,12%,-3.5,0.9
O=C(/C=C/c1c(F)cccc1Cl)Nc1ccncc1,0.3,nt,0.7,8.1,nt,nt,0.5
COc1ccc(C(Cl)=C(C=O)c2ccc(OC)c(OC)c2)cc1OC,12,i,nt,nt,nt,-6.8,nt
Cc1c(CNCc2cccs2)c(C(=O)O)c(C)n1Cc1ccccc1,-2.4,nt,0.73,1.3,23%,nt,-6.3
CCOC(=O)CSc1nc2ccccc2n2c(C)nnc12,-1.6,i,0.68,-2.2,6%,-1.2,2.0
Cc1nc(C(=O)N2CCCC(N3CCN(c4ccccc4C)CC3)C2)cs1 (stereo not drawn),-1.9,i,0.69,?,3%,-2.4,-0.7
Cc1cc(O)c(C(C)C)cc1N=Cc1ccc(N(C)C)cc1,5.0,i,0.66,nt,13%,12,7.8
Cc1ccccc1OCc1nnc(SCC(=O)Nc2ccc3nc(SCC(=O)NC(C)(C)C)sc3c2)n1C,0.3,nt,nt,-0.3,7%,nt,-0.2
COc1cc(NC(=O)CCNC(=O)Cn2ccc3ccccc3c2=O)cc(OC)c1OC,1.4,nt,0.7,-0.3,nt,nt,4.2
Clc1ccccc1-c1nnc2sc(CCc3ccccc3)nn12,-5.2,i,0.68,-1.7,1%,8.2,0.9
COc1cc(C(=O)NCCNC(=O)c2cnccn2)cc(OC)c1OC,-0.9,i,0.71,-0.4,nt,0.4,3.3
Cc1cc(C(=O)N2CCN(S(C)(=O)=O)CC2)sc1-c1ccccc1,20,nt,0.73,2.4,-19%,nt,3.3
CCCCNC(=O)C1(C)CCCCN1C(=O)c1c(Cl)cccc1Cl (stereo not drawn),-1.6,i,nt,nt,nt,-0.7,nt
COc1cccc(CCNC(=O)c2ccc(C#N)cc2)c1,2.1,i,0.67,-0.3,-2%,-1.9,1.3

# In a second layout: results already given.
Structure	HNF4A DNA FP	FGF22 binding	E coli growth	RanGTP-Impb inh	Vif A3G	AF4-AF9 inh	UCH37 inh
Cc1nc(C(=O)N2CCCC(N3CCN(c4ccccc4C)CC3)C2)cs1 (stereo not drawn)	-1.9	i	0.69	?	3%	-2.4	-0.7
Cc1cc(O)c(C(C)C)cc1N=Cc1ccc(N(C)C)cc1	5.0	i	0.66	nt	13%	12	7.8
Cc1ccccc1OCc1nnc(SCC(=O)Nc2ccc3nc(SCC(=O)NC(C)(C)C)sc3c2)n1C	0.3	nt	nt	-0.3	7%	nt	-0.2
COc1cc(NC(=O)CCNC(=O)Cn2ccc3ccccc3c2=O)cc(OC)c1OC	1.4	nt	0.7	-0.3	nt	nt	4.2

# (next part)
SMILES,HNF4A DNA FP,FGF22 binding,E coli growth,RanGTP-Impb inh,Vif A3G,AF4-AF9 inh,UCH37 inh
Cc1ccc(Cl)cc1NC(=O)CC1NC2CCCCC2NC1=O (stereo not drawn),2.2,i,0.64,-1.8,-4%,-1.0,0.5
CCc1nnc(NS(=O)(=O)c2ccc(NCc3cc(Cl)ccc3O)cc2)s1,-1.2,i,0.67,-2.2,nt,-0.5,4.6
CC1CCCCN1S(=O)(=O)c1cccc(S(=O)(=O)N2CCOCC2)c1 (stereo not drawn),2.2,i,0.72,3.6,22%,-20,1.6
Cn1c(=O)c(-c2ccccc2)c(O)c2ccccc21,1.3,i,0.7,1.8,-1%,0.4,4.8
Cc1ccc(C(=O)N2CCN(C34CC5CC(CC(C5)C3)C4)CC2)o1,-0.5,i,0.68,nt,nt,2.1,3.2
Cc1ccc(S(=O)(=O)NN=Cc2ccc(N3CCOCC3)cc2)cc1[N+](=O)[O-],-2.2,i,0.71,nt,nt,-6.2,6.1
CC1(C)CC(=O)C(C=NCCN2CCN(C3CC(=O)N(c4cccc(Br)c4)C3=O)CC2)=C(O)C1 (stereo not drawn),3.5,i,0.69,1.7,-5%,0.6,1.5
O=C(CSc1nnnn1-c1ccc2c(c1)OCCO2)OC1CCCCC1,-0.2,nt,0.68,nt,3%,nt,0.6
O=C(Nc1ccc(OCc2ccccc2)cc1)c1cccs1,-2.0,i,0.71,-0.7,nt,4.3,1.3
OC(CN1CCN(c2cccc(Cl)c2)CC1)C(c1ccccc1)c1ccccc1 (stereo not drawn),1.0,i,0.69,nt,nt,-1.2,4.4
COc1cccc(OC)c1C(=O)OCC(=O)NC1CCCCCC1,1.3,i,0.65,nt,-9%,-2.5,1.5
O=C(COc1ccccc1)NCC(c1ccco1)N1CCN(c2ccccc2F)CC1 (stereo not drawn),3.8,i,0.69,1.8,-4%,3.0,2.6
Nc1nc(-c2ccc(Cl)cc2)nn1C(=O)c1cccnc1,-2.5,nt,0.69,4.1,0%,nt,-1.7
O=C(CSCCO)Nc1cccc([N+](=O)[O-])c1,3.3,nt,0.69,0.3,nt,nt,2.3
COc1ccc(C)cc1NC(=O)c1nn(C)c(C(=O)Nc2cc(C)ccc2OC)c1[N+](=O)[O-],1.0,i,0.63,-1.5,3%,-15,0.3
CC1CCN(C(=O)CN(Cc2ccccc2)S(C)(=O)=O)CC1,-3.8,i,0.64,1.0,9%,3.8,2.6
O=C(Cn1cnc2c(nnn2Cc2ccc(Cl)cc2)c1=O)OCc1ccccc1,4.0,i,0.67,?,-3%,4.4,3.0
CSc1nc(SCC(N)=O)c2c3c(sc2n1)CN(C)CC3,8.1,nt,nt,2.7,7%,nt,-13
CCOC(=O)CC(=O)Nc1cc(Cl)ccc1O,-0.8,nt,0.74,0.5,3%,nt,5.6
COc1ccc(OC)c(C(O)c2ncc(-c3cccc4ccccc34)[nH]2)c1 (stereo not drawn),-0.3,i,nt,nt,nt,14,nt
CC(C)=CCSc1nnc([C@@H](NC(=O)OC(C)(C)C)C(C)C)o1,3.5,nt,0.71,4.3,?,nt,4.8
COc1ccccc1-n1cnc2cc(NS(=O)(=O)c3ccccc3)ccc21,1.5,nt,0.66,1.5,3%,nt,6.2
Fc1cccc(CSc2nc3ncc(Cl)cc3[nH]2)c1,2.0,i,0.64,1.7,-2%,-2.6,3.3
COc1ccc(SC[C@H](C)CN2CC[C@H](C)CCC2=O)cc1,0.7,i,nt,nt,nt,-4.2,0.7
Cc1ccc(Oc2ccc(S(=O)(=O)N3CCOCC3)cc2C(N)=O)c(-n2nc3ccccc3n2)c1,0.0,nt,0.71,3.2,-4%,nt,0.9
Cc1c(NC(=O)c2ccc(NS(=O)(=O)c3ccc(F)c(F)c3)cc2)c(=O)n(-c2ccccc2)n1C,1.4,i,0.67,nt,nt,-2.1,1.2
COc1cc(-c2nnc(SCC(=O)OC3CCCCC3)o2)cc(OC)c1OC,-2.4,nt,0.68,2.8,-9%,nt,1.8
CCCCNC(=O)C1(C)CCCCN1C(=O)c1ccc2ccccc2n1 (stereo not drawn),4.2,i,nt,nt,nt,1.7,nt
CN1CCCN(S(=O)(=O)c2ccc(O)c(C(=O)O)c2)CC1,0.5,i,0.64,1.5,-6%,3.8,-0.3
NC(C(=O)O)C1ON=C(Cl)C1O (stereo not drawn),-0.8,i,nt,nt,-5%,-2.5,nt
COc1cc2c(cc1Cl)/C(=C\CCN(C)C)c1ccccc1S2,0.0,nt,nt,3.4,14%,nt,-1.6
CCC1(CC)Nc2ccccc2C(=O)N1c1ccc(OC)cc1,7.9,i,0.64,1.7,-2%,-0.1,-443
NS(=O)(=O)c1ccc2nc(NC(=O)Nc3ccc(F)cc3)sc2c1,43*,i,0.69,0.8,-22%,0.3,2.1
CCOc1ccc2oc(C(=O)NCc3ccccc3CN3CCCC3)c(C)c2c1,2.5,i,0.67,nt,nt,6.5,-14
Cc1ccc(S(=O)(=O)NN=C2CCCc3ccccc32)cc1,5.1,i,nt,nt,-8%,0.0,nt
COc1ccc(N(CC(=O)N2CCN(Cc3ccccc3)CC2)S(C)(=O)=O)cc1,0.2,nt,0.71,5.1,nt,0.7,2.2
COc1ccc2cc(C(=O)OC(C)C)sc(=O)c2c1OC,-2.8,nt,0.76,?,21%,nt,-3.0
CN=c1sc2c(n1C)C(=O)c1ccccc1C2=O,-0.8,i,nt,nt,nt,-5.7,nt
CCCc1[nH]n(-c2nc3ccccc3s2)c(=O)c1C=NCC(C)C,-8.3,nt,0.73,2.4,-2%,nt,1.5
c1ccc(NC(c2ccccc2)c2ccncc2)cc1 (stereo not drawn),-1.0,i,0.61,-3.1,nt,2.8,2.8
Cc1nc2ccc(C(=O)N(C)Cc3ccco3)cn2c1N(C)CC1CCCCC1,-1.9,i,nt,nt,nt,5.7,nt
CCn1c(O)c(C2=NCCCC2)c2ccccc21,1.4,nt,0.69,2.3,12%,nt,7.6
Cc1ccc(C(C(=O)NC2CCCC2)N2CCc3ccccc32)cc1 (stereo not drawn),0.1,i,0.77,-5.0,0%,2.0,4.6
Cc1cccc(C(=O)OCC(=O)N2CCCCCC2)c1C,-1.6,i,0.68,nt,5%,-1.4,1.9
CCn1nnnc1SCC(=O)NCc1ccc2c(c1)OCO2,-3.3,nt,0.77,-1.2,-9%,nt,2.7
CC(=O)COc1ccc2c(-c3cccc([N+](=O)[O-])c3)cc(=O)oc2c1,0.1,i,0.72,-6.0,nt,-2.0,6.5
Cc1cccc(C(=O)NNC(=O)c2ccc(-c3ccccc3)cc2)c1,-2.8,nt,0.7,-1.6,2%,nt,1.8
CC(C)(C)NC(=S)NCC1CC1,1.7,i,0.69,1.3,-8%,-1.9,0.6

# This is a subset; rates above refer to the full screens.
